S aureus helic = blocks Staphylococcus aureus DNA helicase. purified S. aureus helicase, fluorescence unwinding assay; about half of the hits fall short of the stated cut. inhibition, %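 (tested at about 80 µM)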. 120,000 tested, 0.05% active. AID 485395;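 active means both duplicates at 50% or more, or one of them with a favoured structure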;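 further: 0% = mean of negative control wells and 100% = mean of positive control wells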
MgrA-DNA mod = alters Staphylococcus aureus MgrA binding to DNA | fluorescence polarization | inhibition, %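 (about 10 µg/mL by stock and volumes)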 | 84,000 tested, 0.13% active | AID 602314;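 active means above 50% in either of two replicates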;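 further: 0% = protein plus DNA without compound and 100% = DNA alone without protein; higher means less MgrA bound to DNA so lower polarization; one replicate is shown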
* hit, by the source's call; . = not tested or not shown. The list is partial; count on the stated rates, not on these rows.

SMILES	S aureus helic	MgrA-DNA mod
CC1(c2ccc3c(c2)OCO3)NC(=O)N(CN2CCN(S(=O)(=O)c3ccccc3C#N)CC2)C1=O (centres undefined)	-2	.
CCCCn1nc(C(=O)N(C)CC(=O)Nc2ccc(F)c(F)c2F)ccc1=O	-3	.
Cc1[nH]c(-c2ccc(F)cc2)cc1C(=O)N1CCCCC1	1	1.1
O=C1CC(N2CCN(Cc3ccccc3)CC2)C(=O)N1Cc1ccccc1 (centres undefined)	0	1.6
Cc1ccc(S(=O)(=O)c2cnccn2)cc1	-9	.
Cc1onc(-c2ccccc2Cl)c1C(=O)ON=C1C2CC3CC(C2)CC1C3	.	-2.5
N#CSC1C=CS(=O)(=O)C1 (centres undefined)	13	.
CCOC(=O)N1CCN(C(=O)CCc2nc3cc(Cl)ccc3n(Cc3ccccc3)c2=O)CC1	-5	.
O=S1(=O)CCC(NS(=O)(=O)c2cccc3cccnc23)C1 (centres undefined)	13	.
COc1ccccc1Cn1cccc1C1=NC(C)CO1 (centres undefined)	23	.
CC(=O)N1C(Nc2ccc(C)cc2)CCN1c1ccccc1 (centres undefined)	6	-1.0
Cc1cc(C(F)F)n2ncc(C(=O)O)c2n1	2	-6.3
O=C(Oc1ccc2c3c(c(=O)oc2c1)CCC3)c1ccco1	-30	.
O=C(CSc1nnc(CCCN2C(=O)c3cccc4cccc(c34)C2=O)n1-c1ccccc1)NCc1ccccn1	.	-0.7
O=c1[nH]c(=S)[nH]cc1OCc1ccccc1	2	.
CCOC(=O)c1c(C)oc(NC(=O)COC(=O)c2ccccc2Sc2ccccc2C#N)c1C#N	14	.
Cc1cc(OCCCN2CCCC2)ccc1Cl	6	0.1
CC(C(=O)Nc1ccccc1)N(C)Cc1ccc(OC(F)F)cc1 (centres undefined)	10	.
Nc1ccc(C(=O)N2CCCc3ccccc32)cc1	9	4.9
Cc1c(C(=O)c2ccccc2C(=O)O)sc2ccccc12	.	4.3
CC(=O)Oc1ccc2c(=O)c(-c3ccccc3)coc2c1C	3	.
CC1C(=O)Nc2ccccc2N1C(=O)C1CC1 (centres undefined)	.	0.5
CCCN1C(=O)/C(=C/c2ccc(-c3cccc(C(F)(F)F)c3)o2)NC1=S	-85	.
CCCCN1C(=O)CC(N2CCN(c3ccc(F)cc3)CC2)C1=O (centres undefined)	13	1.4
CCn1c(-n2nc(C)cc2N)nc2ccccc21	-6	-0.8
Cc1ccc(COc2coc(CN3CCc4ccccc43)cc2=O)cc1	-13	.
O=C1Nc2ccccc2S/C1=C\C(=O)N1CCOCC1	33	.
COc1ccc(C[N+](C)(C)C2CCCCC2)cc1OC	14	0.4
O=C(NCCCO)c1ccc(Cl)cc1	9	-2.3
Cn1c(/C(C#N)=C(\O)c2ccc(F)cc2)nc2ccccc21	9	5.1
CCS(=O)(=O)N1CCc2cc(C(=O)COC(=O)c3cc(Cl)ccc3O)ccc21	-17	.
CCc1nc(NCCO)c(C#N)c2c1CCCC2	6	.
O=c1[nH]c(=S)c2c(n1Cc1ccco1)CCC2	14	-0.4
CNC(=S)NCCCc1ccccc1	19	-1.1
O=C(/C=C/N1CCOCC1)c1cc2ccccc2o1	6	-1.4
O=C1/C(=C/c2ccc3nccnc3c2)CCC/C1=C\c1ccc2nccnc2c1	9	-0.3
O=C(COc1ccc(Cl)cc1Cl)Nc1ccc(N2CCOCC2)cc1	-2	3.4
CCCC(C)Nc1oc(-c2ccc(Cl)cc2)nc1C#N (centres undefined)	15	-2.2
COc1ccc(-c2nc(SCC(=O)NCc3ccco3)c(-c3ccccc3)[nH]2)cc1	10	.
CCN(CC1COc2ccccc2O1)C(=O)C1CCN(C(=O)c2ccccc2C)CC1 (centres undefined)	-10	.
COc1ccc(C2CC(C(F)(F)F)n3nc(C(=O)O)cc3N2)cc1 (centres undefined)	20	.
CC(=O)N1CCN(CC(=O)N(Cc2ccccc2)c2cccc(C)c2)CC1	19	.
COc1ccc(C2Nc3ccccc3NC3=C2C(=O)CC(c2ccc(Cl)cc2)C3)c(OC)c1OC (centres undefined)	.	2.0
N=C(N)SCCCc1nc2ccccc2[nH]1	13	.
CCOc1ccc(S(=O)(=O)N2CCN=C2c2ccccc2)cc1C	1	-0.7
Cc1ccccc1OCC(=O)NC1CC2CCC1C2 (centres undefined)	1	0.5
O=C1CC(c2ccco2)CC(O)=C1C=Nc1cc(Cl)ccc1Cl (centres undefined)	8	7.0
O=C(Cn1cnc2sccc2c1=O)NCCC1=CCCCC1	-18	.
S=C(Nc1cccnc1)N1CCCCC1	1	2.4
O=C(c1ccccc1)c1nc2ccccc2s1	-22	1.7
O=C(c1ccc(CSc2nc3ccncc3n2Cc2ccc(F)cc2)cc1)N1CCCCC1	13	0.1
Nc1ccc2c(c1)S(=O)(=O)c1cc(N)ccc1O2	.	0.5
O=S(=O)(c1ccc(Cc2ccc(S(=O)(=O)N3CCCCC3)cc2)cc1)N1CCCCC1	1	0.7
Oc1ccc(O)c(Cc2nc3ccccc3[nH]2)c1	-22	.
O=C(Nc1ccccc1Cl)c1csc2c1CCCC2	-8	.
COc1ccccc1C1CCN(C(=O)c2c(-c3c(Cl)cccc3Cl)noc2C)CC1	.	-2.7
COc1ccc(C)cc1NC(=O)C(=S)NCc1ccco1	9	2.7
FC(F)(F)C1=CC=NCCN1	-16	.
CCCN(C(=O)Cn1ncc2c1-c1ccccc1OC2)c1ccc(Cl)c(Cl)c1	2	0.8
Cc1nn(C(=O)c2cc3c(s2)CCCC3)c(C)c1Sc1ccc(Br)cc1	0	1.5
(more compounds)
SMILES	S aureus helic	MgrA-DNA mod
CN(C)S(=O)(=O)c1ccc2nnn(OCC(=O)NCCc3ccc(Cl)cc3)c2c1	19	.
CCCN(CCC)C(=O)Cn1c(SCc2cccc(F)c2)nc2ccncc21	10	.
CCOC(=O)C1=NN(c2ccccc2)C(=C2C(=O)c3ccccc3C2=O)C1c1cccs1 (centres undefined)	.	-1.1
COc1ccccc1C(=O)c1ccccc1	.	-1.3
Cc1nc(-c2cccnc2)cs1	3	.
Cc1nc2c(cnn2-c2ccccc2)c(=O)[nH]1	-16	-2.8
Cc1cc(N2CCCCC2C)n2ncnc2n1 (centres undefined)	0	-1.6
Cc1cccc(C(CC(=O)N2CCCC2)n2cccc2)c1 (centres undefined)	8	.
O=C1CCN(S(=O)(=O)c2ccc(Cl)c(Cl)c2)CC1	-8	.
COc1ccc(-c2cc(O)cc3sc(=O)oc23)cc1	15	.
NCc1ccc(C(F)(F)F)cc1	7	.
CCN(CC)c1ccc2cc(C(=O)Nc3cccc(OC)c3)c(=O)oc2c1	16	1.4
N#Cc1ccc(C2NC(=O)NC3=C2C(=O)OC3)cc1 (centres undefined)	-3	-1.5
CC(=O)Nc1ccc(N=Cc2ccc(N3CCOCC3)cc2)cc1	5	0.4
CC(C)CCNC(=O)CN1C(=O)C2CC=CCC2C1=O (centres undefined)	-1	.
COc1ccc(-c2nc(N3CCCC3)[nH]c(=O)c2C#N)cc1	4	.
Cn1nc(C(F)(F)F)c(-c2ccccc2)c1NC(=O)CSCC(=O)O	.	-3.2
CCOCC(=O)Nc1c(C(=O)Nc2ccccc2F)oc2ccccc12	10	.
CCOC(=O)c1cc(C(C)C)sc1NC(=O)COC(=O)c1ccc(C)o1	-2	.
CC(=O)Nc1ccc(C)c(N=Cc2ccc(Cl)c(Cl)c2)c1	.	1.6
Cc1ccc(NC(=O)CSC2=NCCN2)cc1	-3	.
COc1ccc(CNCc2cn3c(-c4ccc(Br)cc4)nnc3s2)cc1	2	.
COc1ccc(C(=O)N2CCN(CCCc3c[nH]c4ccc(F)cc34)CC2)cc1	.	-3.0
c1ccc2c3c([nH]c2c1)CCC3	-34	.

Some of the entries so far, bar-delimited.
compound | S aureus helic | MgrA-DNA mod
Cc1cccc(C(CC(=O)N2CCCC2)n2cccc2)c1 (centres undefined) | 8 | .
O=C1CCN(S(=O)(=O)c2ccc(Cl)c(Cl)c2)CC1 | -8 | .
COc1ccc(-c2cc(O)cc3sc(=O)oc23)cc1 | 15 | .
NCc1ccc(C(F)(F)F)cc1 | 7 | .
CCN(CC)c1ccc2cc(C(=O)Nc3cccc(OC)c3)c(=O)oc2c1 | 16 | 1.4
N#Cc1ccc(C2NC(=O)NC3=C2C(=O)OC3)cc1 (centres undefined) | -3 | -1.5
CC(=O)Nc1ccc(N=Cc2ccc(N3CCOCC3)cc2)cc1 | 5 | 0.4
CC(C)CCNC(=O)CN1C(=O)C2CC=CCC2C1=O (centres undefined) | -1 | .
COc1ccc(-c2nc(N3CCCC3)[nH]c(=O)c2C#N)cc1 | 4 | .
Cn1nc(C(F)(F)F)c(-c2ccccc2)c1NC(=O)CSCC(=O)O | . | -3.2
CCOCC(=O)Nc1c(C(=O)Nc2ccccc2F)oc2ccccc12 | 10 | .
CCOC(=O)c1cc(C(C)C)sc1NC(=O)COC(=O)c1ccc(C)o1 | -2 | .
CC(=O)Nc1ccc(C)c(N=Cc2ccc(Cl)c(Cl)c2)c1 | . | 1.6
Cc1ccc(NC(=O)CSC2=NCCN2)cc1 | -3 | .
COc1ccc(CNCc2cn3c(-c4ccc(Br)cc4)nnc3s2)cc1 | 2 | .
COc1ccc(C(=O)N2CCN(CCCc3c[nH]c4ccc(F)cc34)CC2)cc1 | . | -3.0
c1ccc2c3c([nH]c2c1)CCC3 | -34 | .

The listing continues.
SMILES	S aureus helic	MgrA-DNA mod
Cc1cc(/C=C/C(=O)Nc2nccs2)c(C)n1-c1ccccc1	-15	.
Cc1cc(NC(NC(=O)N(C)C)(C(F)(F)F)C(F)(F)F)no1	.	4.3
Nc1nonc1-c1noc(CCCN2C(=O)c3ccccc3C2=O)n1	5	.
CCOCC(=O)N1CCC(C(=O)OCC)CC1	5	-0.9
N#CCOC(=O)c1ccc(Br)o1	3	.
O=C(O)C(O)C(O)c1nc2ccccc2[nH]1 (centres undefined)	11	.
Cc1ccc(S(=O)(=O)N(C)c2nc3ccccc3nc2NCCCN(C)C)cc1	-5	.
COc1cccc(/C=N/NC(=O)C2CC23CCC3)c1O (centres undefined)	6	3.8
Cn1cnnc1Sc1ccc(Cl)cc1NC(=O)Cn1c(=O)cnc2ccccc21	13	.
N#Cc1ccc(CSC(N)=Nc2ccccc2)cc1	.	-4.2
CCN(CC)S(=O)(=O)c1ccc2c(c1)CC(C)N2C(=O)C1CC1 (centres undefined)	-25	.
O=C(O)c1cccc(N2CCCCC2)c1	2	-3.5
CCOC(=O)c1ccc(N2CCOCC2)c(NC(=O)c2nccnc2C(=O)O)c1	-2	.
c1csc(-c2nc3ccccc3[nH]2)c1	4	.
COCCn1c(=O)c2ccccc2c2ccccc2c1=O	0	.
CCOC(=O)C(Cc1ccccc1)C(=O)Nc1nc2ccccc2s1 (centres undefined)	-3	0.9
CN1Cc2ccccc2N(CC(=O)O)C1=O	17	-3.2
CCn1cc(C(=O)NCC(OC)OC)c(=O)c2cc(S(=O)(=O)N3CCc4ccccc4C3)ccc21	0	.
CN1CCN(CNC(=O)c2cnccn2)CC1	0	.
CC(=O)Nc1ccc(NC(=O)Cc2c[nH]c3ccccc23)cc1	-11	.
COc1cccc(CSc2nc3ccncc3[nH]2)c1	6	.
O=S(=O)(c1ccc(Oc2ccccc2)nc1)N1CCCC1c1ccc(F)cc1 (centres undefined)	.	1.6
Cc1cc2ncc(C(=O)O)c(C(F)(F)F)n2n1	.	-0.2
O=C(NNc1ccccc1)C(F)(F)F	-5	.
NC(=O)COC(=O)/C=C/c1ccc(Cl)cc1Cl	1	-4.5
O=C1OC2(CCCCC2)OC(=O)C1=CNc1nccs1	4	0.0
Cc1ccccc1OCC(=O)Nc1ccc(-c2nc3ccccc3o2)cc1	-4	.
Cc1nn(-c2ccccc2)c2sc(C(=O)C(C#N)c3ccc4ccccc4n3)cc12 (centres undefined)	-25	.
CC(=O)NC(C)c1nc2ccccc2n1C(C)C (centres undefined)	-20	.
Cn1/c(=N/NC(=S)NC(=O)C2CC2)sc2ccccc21	-2	.
O=C(NN=C1CCCC1)c1ccc(Cl)cc1	-3	.
O=C1/C(=C\c2ccc(-c3cccc(Cl)c3)o2)Sc2ccccc21	.	-2.8
O=C(CN1C(=O)CCC1=O)Nc1ccc(OC(F)F)cc1	4	.
COc1ccc2c(c1)SC1=NC(c3ccccc3)(C(F)(F)F)NC(=O)N12 (centres undefined)	20	1.6
CC(=O)c1ccc(OCC(O)CN2CCCN(C(=O)c3cccs3)CC2)cc1 (centres undefined)	.	0.7
COc1ccc2cc(S(=O)(=O)Nc3ccccn3)ccc2c1	3	-5.0
NS(=O)(=O)c1ccc2nc(NC(=O)C3CC3)sc2c1	-11	.
CCOC(=O)/C=C(\C)Nc1ccc(Cl)cc1	-6	-0.4
Cc1nn2c(nc1=O)NN=C(c1ccccc1)C2	36	.
N#C/C(=C\c1ccc2c(c1)OCO2)c1ccccn1	.	-0.5
Cc1ccccc1OCC(=O)NC(C)(C)C	18	-0.1
OC(CNCc1ccc2c(c1)OCO2)CSc1ccccc1 (centres undefined)	.	0.5
CCCc1nc(Nc2nc3ccccc3o2)ncc1C(=O)OCC	10	3.8
CC(=O)N1CCc2cc(Br)ccc21	.	0.2
Cc1sc2nc3n(c(=O)c2c1-c1ccccc1)CCC3	8	.
O=C(NCc1ccccc1)c1cc(C2CC2)on1	6	1.4
Cc1cc(C)c(S(=O)(=O)NCCO)c(C)c1	-20	0.7
CS(=O)c1nc2ccccc2s1 (centres undefined)	.	0.0
CCOc1ccccc1C(=O)NC1CC2CCCC(C1)N2C1CC1 (centres undefined)	6	0.9
Cc1cc2cc(CNC(=O)c3ccccc3)ccc2n1C	12	.
C/C(=C\C(=O)c1ccc(C)o1)Nc1ccc(F)c(C)c1	12	0.8
Cc1cc(Nc2ccccc2)n[nH]1	1	-0.4
Cc1nn(C2CCS(=O)(=O)C2)c(Cl)c1/C=C/C(=O)OCC(N)=O (centres undefined)	-4	.
CC(C)(C)n1nnnc1C(c1ccccn1)N1CCC(Cc2ccccc2)CC1 (centres undefined)	0	-6.8
CS(=O)(=O)N1c2cccc3cccc(c23)S1(=O)=O	33	.
COCc1cc(=O)[nH]c2c1c(-c1cccs1)nn2C	.	0.6

Screens deposited in PubChem by ICCB-Longwood Screening Facility, Harvard Medical School.
